Prx2 Sm inh: Schistosoma mansoni Prx2 inhibition. S. mansoni Prx2 activity coupled to TGR/GSH (TGR is thioredoxin glutathione reductase), NADPH fluorescence loss, qHTS; some inactives read as strong as hits. Potency, µM. hit rate 0.07% among 65,000. AID 448; active means full or partial inhibition curve with a strong effect at the top dose; inconclusive means weaker partial or single-point curve; inactive means no accepted curve; note: series up to 57 µM; many of its hits are not listed in these tables
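Activity is read as the drop in NADPH fluorescence (365/450 nm), recorded every 30 sec for 8 min after H2O2 addition. Prx2 is coupled to TGR-driven NADPH oxidation through glutathione, in phosphate buffer pH 7.4.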
Anthrax LT inh: blocks cellular internalization of anthrax lethal toxin | Cells, anthrax lethal toxin internalization, FRET ratio (460/530) | Potency, µM (highest dose often 40 µM), inactives show top-dose activity change, negative = inhibition, hits mostly inhibitors | hit rate 0.67% among 70,000 | AID 912; active = well fitted falling ratio curve with the 530 nm signal flat; inconclusive = other ratio curves, or a change in one channel alone; inactive = flat curves in the ratio and both channels; the % refers to the ratio; note: % is set by controls: 0 for no effect and ±100 for the full control effect; nearly all actives have a fitted effect of over 50% in size; tested in ME-180 cells; beta-lactamase reporter
Numbers without * were called inactive; ? = inconclusive; nt = no result given; [ ] = remark or other dose. Potency is the fitted concentration of half-maximal effect. Only part of the results is shown; count on the stated rates, not on these rows.

compound	Prx2 Sm inh	Anthrax LT inh
CCC(Sc1nc2ccccc2c(=O)n1CC1CCCO1)C(=O)NCc1cccnc1 (stereo not given)	>57	11%
O=C(c1cnccn1)N1CCC2(CCCN(C(c3ccccc3)c3ccccc3)C2)CC1	>57	?
O=c1cc(O)cc(/C=C\c2ccc(O)c(O)c2)o1	>57	-1%
N[C@H](C(=O)O)[C@H](O)C(=O)O	>57	-1%
CCc1ccc(CCC(=O)Nc2nnc(CC)s2)o1	>57	?
CC(C)N(C)C1CCN(C(=O)Nc2ccc(Cl)c(Cl)c2)CC1	>57	nt
O=C(CCCN1C(=O)CCC1=O)Nc1cccc(C(F)(F)F)c1	>57	-2%
COc1ccccc1NC(=O)N1CCCC1C(=O)Nc1nnc(C(C)C)s1 (stereo not given)	>57	10%
COc1ccc(C)cc1NC(=O)CN1CCN(S(=O)(=O)c2ccc(F)cc2)CC1	>57	-8%
COC(=O)c1sc(S(=O)(=O)Nc2ccc3cn[nH]c3c2)c(C(=O)OC)c1C	>57	-2%
CCCc1cc(=O)[nH]c(Nc2ccc(N3CCCCC3)cc2)n1	>57	-2%
COc1ccc(CCNC(=O)c2cc(-c3ccccc3)on2)cc1OC	>57	-19%
CC1(C)Cc2noc(N)c2C(C)(C)N1OC(=O)c1ccccc1	>57	11%
COc1ccc(C(c2sc3nc(C)nn3c2O)N2CCCCC2)cc1 (stereo not given)	>57	13%
CCN(CC)C(=O)c1sc(NC(=O)c2ccoc2C)c(C(=O)OC)c1C	nt	-1%
O=C(Nc1cc[c]([Sb](=[O])([OH])[OH])cc1)c1ccccc1	>57	-3%[8 µM]
COc1ccc(-c2nnc(SCc3ccccc3)n2N)cc1	>57	?
Cc1ccc(S(=O)(=O)Cn2nnnc2C(c2ccc(F)cc2)N2CCC(C(N)=O)CC2)cc1 (stereo not given)	>57	-4%
CCOC(=O)N1CCC(NC(=O)CCc2cn(C)c3ccccc23)CC1	>57	?
CC1(C)C(=O)C2(CCCC2)C(=O)OC1c1ccco1 (stereo not given)	>57	-6%
CCCn1cnc2c(c1=O)c1nc3ccccc3nc1n2Cc1ccccc1OC	>57	-3%
COc1cccc(C2CC(c3ccccc3OC)n3ncnc3N2)c1 (stereo not given)	>57	12%
CCOC(=O)c1cc2c(ccn2C)n1CC(=O)N1CCN(c2ccccc2OC)CC1	>57	?
COc1ccc(OC)c(C2/C(=C(\O)c3c(C)nc4ccccn34)C(=O)C(=O)N2CCCN(C)C)c1 (stereo not given)	>57	7%
Cc1o[nH]c(=O)c1CC[C@H](N)C(=O)O	>57	?
COCC(=O)N1CCC2(CC1)CCN(C(=O)NC(C)C)CC2	>57	6%
Cc1nc2ccc(Cl)cn2c1P(=S)(N1CCOCC1)N1CCOCC1	>57	-13%
CCCNC(=O)c1nc2ncc(Br)cn2n1	>57	5%
CN1CCCCc2c1nc1ccccc1c2N (tested in a mixture with another compound)	>57	-8%
O=C(c1ccc(N2C(=O)CCC2=O)cc1)N1CCN(c2ccccc2)CC1	>57	1%
O=C(O)CCN1Cc2ccccc2C1=O	>57	-19%
COc1ccc(NC(=O)CCN2CCN(S(=O)(=O)c3cc(Cl)ccc3OC)CC2)cc1	>57	?
Cn1c(=O)c2c(nc(N3CCNCC3)n2Cc2cccc3ccccc23)n(C)c1=O	>57	-17%
O=C(O)c1ccccc1OCCOc1ccccc1C(=O)O	>57	6%
O=C(O)CC1CCS(=O)(=O)C1 (stereo not given)	>57	19%
Cc1ccc(-c2nc3ccccc3c(=O)n2CCN2CCOCC2)cc1	>57	-1%

4 entries from above, arranged by SMILES length, lowest first:
compound	Prx2 Sm inh	Anthrax LT inh
Cc1o[nH]c(=O)c1CC[C@H](N)C(=O)O	>57	?
O=C(O)c1ccccc1OCCOc1ccccc1C(=O)O	>57	6%
Cc1nc2ccc(Cl)cn2c1P(=S)(N1CCOCC1)N1CCOCC1	>57	-13%
COc1ccc(NC(=O)CCN2CCN(S(=O)(=O)c3cc(Cl)ccc3OC)CC2)cc1	>57	?

(listing goes on)
compound	Prx2 Sm inh	Anthrax LT inh
Cc1nc(NCc2ccccc2)c2nc(-c3ccccc3)n(CCCN(C)C)c2n1	nt	?
COc1cccc(Nc2ncc3nc(-c4ccccc4)c(=O)n(C[C@H]4CCCO4)c3n2)c1	>57	?
CN(C)c1ncc2nc(-c3ccc(Cl)cc3)c(=O)n(-c3ccccc3)c2n1	>11	?
CCOC(=O)N(C)OC(=O)Nc1ccc(Cl)c(Cl)c1	nt	-2%
Nc1nc2n(n1)C(c1cccc(Br)c1)CC(c1ccc(F)cc1)N2 (stereo not given)	>57	6%
CCc1nnc(NC(=O)CSc2nnc(CSc3nc(C)cc(C)n3)o2)s1	>57	-6%
CC(C)COC(=O)n1c(=O)oc2cc(S(=O)(=O)N3CCCCC3)ccc21	>57	nt
O=C(CN1CCN(c2ccccn2)CC1)NCCc1ccccc1	>57	17%
O=C(Cc1cccs1)Nc1ccccc1NC(=O)Cc1cccs1	nt	0%
Cc1cc2oc3c(c(=O)c2cc1C)C(c1ccc(F)cc1)N(CCCN1CCOCC1)C3=O (stereo not given)	>57	14%
Cc1cccc(N2CCN(C(=O)C3CCN(S(=O)(=O)c4cccc5nsnc45)CC3)CC2C)c1 (stereo not given)	>57	?
CCCOC(=O)C1=C(C)NC2=C(C(=O)CC(C)(C)C2)C1c1ccc(N(C)C)cc1 (stereo not given)	>57	12%
O=C(CN1CCN(C(c2ccccc2)c2ccccc2)CC1)NC(=O)NCc1ccco1	>57	0%
CC(=O)SC(C)CC(=O)Nc1ccccc1 (stereo not given)	nt	5%
COc1ccc(CN2CCNC(=O)C2CC(=O)O)c(OC)c1 (stereo not given)	>57	-1%
CCOC(=O)C1CCN(C(=O)C2CCN(S(=O)(=O)CC)CC2)CC1	>57	9%
COc1ccc(-c2nnc(SCC(=O)N3CCN(c4ccccc4)CC3)o2)cc1OC	>57	2%
O=C(Nc1ccc(N2CCCC2)c(Cl)c1)c1ccc(Br)o1	nt	?
Cn1c(CN2CCCC2)nc2cc(NS(=O)(=O)c3ccccc3)ccc21	>57	-6%
O=C(Nc1cnc2ccccc2c1)c1cccnc1	>57	-6%
Cc1cc(C)nc(Nc2n[nH]c(COc3ccccc3)n2)n1	>57	?
C=C(C)CSc1nc2ncccc2[nH]1	>57	5%
O=C(NCc1cccs1)c1cccc(N2CCCC2=O)c1	>57	36%
CNC(=O)C1CC(=O)N(Cc2ccc3c(c2)OCO3)C(=Nc2ccc(OC)cc2)S1 (stereo not given)	>57	-11%
c1ccc(N2CCN(Cc3ccnc4ccccc34)CC2)cc1	nt	?
O=c1c2cnn(-c3ccccc3)c2ncn1/N=C/c1ccncc1	>57	4%
O=S(=O)(Nc1cccc2ncccc12)c1cccs1	>57	8%
Cc1ccc(C)c(N2C(=O)CC(N3CCN(Cc4ccc5c(c4)OCO5)CC3)C2=O)c1 (stereo not given)	nt	-5%
Nc1cccc2cnccc12	>57	-21%
CN(C)c1ccc(CNC23CN4CN(CN(C4)C2)C3)cc1	>57	?
Cc1cc(=O)c2n(Cc3ccc(Cl)cc3)nc[n+]2[nH]1	>57	-9%
COc1ccc(OC)c(N(CC(=O)NCCSc2ccccc2)S(C)(=O)=O)c1	nt	1%
Cc1ccc(C)c(N2CCN(C(=O)c3ccc(Cn4c(=O)[nH]c5ccccc5c4=O)cc3)CC2)c1	>57	-17%
Cc1cc(C)c2c(n1)nn1c(C)c(CCC(=O)NCc3ccco3)c(C)nc21	nt	-2%
C=CCOc1ccccc1/C=c1\sc2nc(-c3oc4ccccc4c3C)nn2c1=O	>57	nt
CCc1nc2ccccc2c(C(=O)OCC(=O)NCCCN2CCCC2=O)c1C	>57	-7%
CN(C)Cc1ccccc1-c1nccc(N(C)Cc2ccco2)n1	>57	?
CCN(CCCc1ccccc1)CCCc1ccccc1	>57	?
CCNc1nc(N)nc(Oc2ccc(OCCOc3ccc(Cl)cc3Cl)nn2)n1	>57	-7%
CCCC(=O)Nc1ccc(-c2nc3cc(C)c(C)cc3o2)cc1	>57	-16%
CCC(C)NC(=O)Cn1cccc1C(=O)c1ccccc1 (stereo not given)	>57	-1%
CCCn1c(SCC(=O)c2ccc3c(c2)OCCO3)nc2c1c(=O)n(C)c(=O)n2C	>57	1%
CN(C)S(=O)(=O)c1ccc(C(=O)Nc2ccccc2OC(F)(F)C(F)F)cc1	>57	-16%
CCOC(=O)N1CCN(c2nc(-c3ccco3)cc(C(F)(F)F)n2)CC1	>57	-2%
O=C(NC1CCCCC1)c1ccc(Br)o1	>57	-5%
O=C1C2CCCN2C(c2cccnc2)N1c1ccc(Cl)cc1 (stereo not given)	>57	5%
CCCCCOC(=O)C1=C(C)Nc2nnnn2C1c1ccc(OC)c(OC)c1OC (stereo not given)	nt	-19%
C=CCNC(=O)C1CC(=O)N(c2ccc(Br)cc2)C1 (stereo not given)	>57	10%
COc1ccc(/C(CC2(O)C(=O)Nc3ccccc32)=N\O)cc1 (stereo not given)	>57	?
Cc1ccnc(NC(=O)CCC2COc3ccccc3O2)c1 (stereo not given)	>57	?
O=C(O)c1ccccc1Nc1ccccc1	>57	?
c1ccc2c(c1)Cn1c-2nc2ccccc21	>57	3%
N#CC1=C(N)SC(N)=C(C#N)C1CCc1ccccc1	>57	?
Cc1cc2n(n1)SC(Nc1ccccc1)N2 (stereo not given)	>57	-8%
C=C(C)Cn1c(SCC(=O)O)nc2c1c(=O)[nH]c(=O)n2C	>57	1%
CCc1ccc(CNc2ccc3c(c2)ncn3C)cc1	>57	10%
CCOC(=O)C1CCCN(c2c(N3CCN(c4cccc(Cl)c4)CC3)c(=O)c2=O)C1 (stereo not given)	>57	0%
CC(C)OC(=O)c1ccc(NC(=O)C2C3CC4OC(=O)C2C4C3)cc1 (stereo not given)	>57	10%
CCn1c(SCC(=O)Nc2nccs2)nnc1-c1ccccc1	>57	10%
Cc1ccc(O)c(CC(C)C)n1	>57	?

(listing goes on)
compound	Prx2 Sm inh	Anthrax LT inh
CCOC(=O)CSc1nc(CC)nc2ccccc12	>57	?
Cc1ccc(NC(=O)N2CCC(O)(c3ccc(Cl)cc3)CC2)cc1	>57	-11%
O=C(O)[C@@H]1C[C@H]1[C@@H](NP(=O)(c1ccccc1)c1ccccc1)c1ccccc1	>57	-5%
CCOC(=O)c1cnc2c(Cl)c(Cl)ccc2c1N1CCN(C)CC1	>57	?
CCOc1cc(N2CCOCC2)c(OCC)cc1NS(=O)(=O)c1ccc(Cl)s1	>57	-24%
CC(C)=CC(=O)Nc1ccccc1C(N)=O	>57	10%
CCOC(=O)c1c(C)n(C)c2ccc(OCC(N)=O)cc12	>57	2%
CCOc1cc(C2C(C#N)=C(N)Oc3n[nH]c(CC)c32)ccc1OCCN1CCOCC1 (stereo not given)	>57	-8%
COC(=O)C1C2C=CC3(CN(c4cccc(C)c4)C(=O)C13)O2 (stereo not given)	>57	10%
CCCNC(=O)C(NS(=O)(=O)c1cccc2nsnc12)c1ccccc1 (stereo not given)	>57	6%
CC(=O)Nc1ccccc1NC(=O)CN(C)S(=O)(=O)c1ccc(C)cc1	>57	12%
COc1ccc(Cl)cc1NC(=O)CCN1CCN(c2ccccc2C)CC1	>57	-1%
O=C(Nc1cccc(C(F)(F)F)c1)C1CCCN1S(=O)(=O)c1cccc2cccnc12 (stereo not given)	>57	-13%
COC(=O)c1ccc2c(=O)n(CCCCCC(=O)N3CCN(c4ccc(F)cc4)CC3)c(=O)[nH]c2c1	>57	9%
COc1ccc(C2N(C(=O)c3ccccc3)CCN2C(=O)c2ccccc2)cc1	>57	8%
O=C(c1csnn1)N1CCC2(CCCN(c3ccccn3)C2)CC1	>57	17%
Cc1cc(C(=O)NCCC2=CCCCC2)no1	>57	-12%
COc1ccc2[nH]cc(CCNc3cc(-c4cccnc4)ncn3)c2c1	>57	5%
CS(=O)(=O)Cc1nc2ccccc2oc1=O	>57	3%
CC1(C)CC(N2CCN(c3ccccc3)CC2)=CC(=[N+]2CCCC2)C1	nt	-17%
Cc1cc(C)nc(SCc2nnc(SCC(=O)N3CCCc4ccccc43)n2C)n1	>57	7%
CC(C)=O	nt	2%
CCSc1nc2ccccc2n1Cc1nc(N)nc(N(C)C)n1	>57	1%

Assay outcomes: PubChem BioAssay, National Center for Advancing Translational Sciences (NCATS)
